Rango release inh = inhibitors of RanGTP-induced Rango-importin beta complex dissociation; Biochemical FRET Rango-importin beta, RanGTP-induced dissociation; Potency, µM (highest dose often 46.1 µM), for the others: at the highest dose activity change, negative = inhibition; hit rate 0.071% among 340,000; AID 540253; active means falling FRET ratio curve, often poorly fitted, with flat reads before Ran was added; inconclusive means other falling curves, or compound fluorescence or quenching; inactive means flat or rising ratio curve;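 further: potency means the concentration at half of the fitted maximal effect; % of control where 0% means no effect; nearly all actives have a fitted effect of over 45% in size; -100% = wells without RanGTP and RCC1; the record marks most hits as doubtful in a second field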
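Compounds sat 5 min at room temperature with 0.1 uM Rango biosensor plus 0.25 uM importin beta, then FRET pre-read. RanGTP-RCC1 (0.6 uM Ran, 2mM GTP, 0.2 uM RCC1) added for 45 min, and the CFP/YFP post-read measured blocked complex dissociation.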
Rango complex inh = Rango-importin beta binding inhibition; Q14974; Rango CFP/YFP FRET sensor + importin beta, 45 min; Potency, µM (titrated, usually from 92.2 µM), for the others: at the top dose inhibition of complex formation; hit rate 0.031% among 340,000; AID 540263; active = rising FRET ratio curve, often small or poorly fitted; inconclusive = mostly compound fluorescence or quenching in the first reads; inactive = flat curves in all reads;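 further: potency means the concentration at half of the fitted maximal effect; 0% = DMSO wells and 100% = buffer wells lacking importin beta; nearly all actives have a fitted effect of over 15% in size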
Target sequence (Q14974 whole entry, looked up): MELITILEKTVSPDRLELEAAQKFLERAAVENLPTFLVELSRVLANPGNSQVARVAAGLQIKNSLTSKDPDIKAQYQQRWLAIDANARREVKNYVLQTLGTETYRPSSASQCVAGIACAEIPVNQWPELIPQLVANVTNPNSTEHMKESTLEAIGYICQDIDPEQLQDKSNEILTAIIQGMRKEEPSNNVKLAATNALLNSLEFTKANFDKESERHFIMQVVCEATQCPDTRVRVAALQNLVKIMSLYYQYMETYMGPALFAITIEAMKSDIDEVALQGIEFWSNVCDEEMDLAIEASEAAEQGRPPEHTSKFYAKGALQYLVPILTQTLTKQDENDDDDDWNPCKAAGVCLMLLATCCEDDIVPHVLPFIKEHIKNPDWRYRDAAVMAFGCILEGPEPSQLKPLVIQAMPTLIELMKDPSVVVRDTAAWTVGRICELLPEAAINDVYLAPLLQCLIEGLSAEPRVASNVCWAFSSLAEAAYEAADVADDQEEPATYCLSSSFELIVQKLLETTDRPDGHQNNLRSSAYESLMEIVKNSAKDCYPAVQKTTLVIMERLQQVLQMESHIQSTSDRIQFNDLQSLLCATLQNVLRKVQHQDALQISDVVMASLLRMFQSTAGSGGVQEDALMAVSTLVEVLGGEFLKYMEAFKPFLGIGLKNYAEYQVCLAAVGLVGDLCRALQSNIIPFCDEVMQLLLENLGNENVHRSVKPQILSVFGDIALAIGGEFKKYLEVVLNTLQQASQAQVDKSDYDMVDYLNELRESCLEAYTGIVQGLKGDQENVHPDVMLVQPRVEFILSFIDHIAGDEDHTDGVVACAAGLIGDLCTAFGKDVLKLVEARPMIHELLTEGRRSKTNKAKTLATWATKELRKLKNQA
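FRET biosensor (snurportin 1 IBB flanked by EYFP and cerulean), 50 nM, with compound 5 min, then 0.125 microM importin beta in PBS, 1 mM DTT, 0.02% Tween-20, 0.1% BSA. CFP/YFP ratio read after 45 min at room temperature; pre-read flags interference.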
GLA inh pH 4.5 = inhibitors of human alpha-galactosidase A at pH 4.5. P06280. purified enzyme, 4-MU-alpha-Gal fluorescence, pH 4.5. activity change, negative = inhibition, % at 105 µM. 230,000 tested, under 10 active; inconclusive = small, poorly fitted or top-dose-only inhibition, or a rising curve; inactive = flat fitted curve, though single readings scatter; no compound was filed as active;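 further: 0% = full activity with enzyme and -100% = basal without enzyme; dose as in the result columns while the protocol names 77 µM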
miR-21 reporter = raises the signal of a miR-21 reporter | HeLa miR-21 FLuc reporter, luciferase, 48 h | Potency, µM (series often up to 38.3 µM), for inactives: top-dose reporter change, positive = more light | 340,000 tested, under 10 active; active = well fitted rising curve with a large enough effect; inconclusive = small, poorly fitted or top-dose-only effect; inactive = no such curve, though single readings can be large or run the other way;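 further: % of control where 0% means no effect; miR-21 action dims this reporter so a rising signal means less miR-21 action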
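Compounds were titrated across several concentrations (up to approximately 40 uM) and incubated 48 hours with HeLa miR-21-FLuc reporter cells (miR-21 target sequence downstream of FLuc, endogenous miR-21). Readout was firefly luciferase luminescence after lytic detection reagent.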
* marks the source's active call; other numbers are inactive results; ? = inconclusive; . = not tested or not shown. Only part of the results is shown, so the mix of outcomes need not match the whole.

[1] CCCc1nc2ccccc2c(=O)n1CCc1ccccc1
[2] COc1ccc(C(=O)CCN2CCN(c3ccccc3F)CC2)cc1
[3] CC(NC(=O)c1ccccc1NC(=O)CN1CCc2ccccc2C1)c1ccccc1 (configuration not stated)
[4] COc1ccc(OC)c(S(=O)(=O)N(C)CC(=O)N2CCOCC2)c1
[5] CCCOc1ccc(N2CC(C(=O)Nc3ccccn3)CC2=O)cc1 (configuration not stated)
[6] COc1cc(S(=O)(=O)Nc2ccc(C)cc2)ccc1NC(=O)c1ccncc1
[7] COc1ccc(NS(=O)(=O)c2ccc3oc(=O)c4[nH]c(=O)c(=O)n(C)c4c3c2)cc1
[8] Cc1cc(Cl)ccc1NC(=S)N1CCN(Cc2ccc3c(c2)OCO3)CC1
entry no. | 1 | 2 | 3 | 4 | 5 | 6 | 7 | 8
Rango complex inh | 2.8% | -1.8% | 14% | ? | 0.0% | -0.6% | 0.4% | 2.3%
miR-21 reporter | 6% | 2% | 8% | -1% | 1% | -4% | -3% | 3%
Rango release inh | -17% | 4% | 12% | -8% | 16% | -7% | 9% | 2%
GLA inh pH 4.5 | . | -5 | . | . | -10 | 5 | . | 6

[9] Cc1cc(N/N=C/c2ccccc2[N+](=O)[O-])nc(-n2nc(C)cc2C)n1
[10] C/C(=N\n1c(C)cc(C)c(C#N)c1=O)c1cccs1
[11] CCOC(=O)C1CCCN(C(=O)c2cn(CC)c3ccc(S(=O)(=O)N(C)C)cc3c2=O)C1 (configuration not stated)
[12] CC(=O)c1c(C)[nH]c(C(=O)NNC(=O)COc2ccc(Cl)cc2C)c1C
[13] Cc1nc2c(C)cccn2c(=O)c1NC(=O)COc1ccccc1
[14] C/C(=N\NS(=O)(=O)c1ccc(C)cc1)c1ccc(C)s1
[15] CSc1ccc(Cl)c(C(=O)NNC(=O)c2csc(N3CCOCC3)n2)c1
[16] O=c1[nH][nH]c(-c2ccccc2)c1C=Nc1ccc(C(F)(F)F)cc1
entry no. | 9 | 10 | 11 | 12 | 13 | 14 | 15 | 16
Rango complex inh | 1.4% | 0.8% | 3.0% | -1.5% | -1.0% | 0.4% | -9.1% | -2.7%
miR-21 reporter | 2% | 1% | -5% | . | . | -3% | . | 3%
Rango release inh | -9% | 2% | 39% | 18% | 11% | 1% | 33% | 5%
GLA inh pH 4.5 | -14 | 3 | -6 | . | . | -3 | . | 5

[17] O=C(O)/C=C/c1coc2ccccc2c1=O
[18] Cc1ccc(NS(=O)(=O)c2cccc(C(=O)OCC(=O)NCc3ccco3)c2)cc1
[19] O=C(CNC(=O)c1ccc2c(c1)S(=O)(=O)N=C1CCCCCN12)Nc1ccc(F)c(F)c1
[20] CC(C)CC(NC(=O)c1ccc(Cl)cc1Cl)C(=O)O (configuration not stated)
[21] C/C(=N\NC(=O)c1ccc(CSc2nncn2C)cc1)c1ccc2ccccc2c1
[22] COc1cc(C(=O)NCCOc2ccccc2C)c(Br)c(OC)c1OC
[23] Cc1ccc(NC(=O)CCS(=O)(=O)c2cc3[nH]c(=O)c(=O)[nH]c3cc2C)cc1
[24] O=C1CN(C(=O)COC(=O)CCS(=O)(=O)c2ccccc2Cl)c2ccccc2N1
entry no. | 17 | 18 | 19 | 20 | 21 | 22 | 23 | 24
Rango complex inh | 0.1% | -0.9% | -3.4% | 4.8% | -0.6% | -3.7% | 0.4% | -1.4%
miR-21 reporter | -26% | -3% | . | -3% | -4% | -12% | -1% | .
Rango release inh | -6% | -18% | 6% | 4% | 2% | -6% | -1% | ?
GLA inh pH 4.5 | 2 | -6 | . | -6 | 9 | 10 | . | .

[25] CN(CCO)S(=O)(=O)c1ccc2c(c1)C(=O)c1cc(S(=O)(=O)N(C)CCO)ccc1-2
[26] CC1(C)CC(=O)C2=C(C1)N(c1ccc(F)cc1)C(N)=C(C#N)C2c1cccs1 (configuration not stated)
[27] Cc1ccc(NS(=O)(=O)c2ccc3oc(=O)ccc3c2)cc1Cl
[28] Nc1nonc1-n1nnc(C(=O)N/N=C/c2ccc(OCc3ccccc3F)cc2)c1CNc1ccccc1
[29] CCSc1nnc(NC(=O)c2nn(C(C)C)c(=O)c3ccccc23)s1
[30] CC(=O)c1ccc2c(c1)OCCOCCOCCOCCO2
[31] N#Cc1cc2c(nc1SCc1cccnc1)CCC2
[32] O=C(NCc1cccs1)C1CCC(CNS(=O)(=O)c2ccccc2)CC1 (configuration not stated)
entry no. | 25 | 26 | 27 | 28 | 29 | 30 | 31 | 32
Rango complex inh | 0.1% | ? | 6.9% | ? | 5.8% | 1.5% | -5.1% | -0.1%
miR-21 reporter | -1% | -6% | -5% | -17% | -8% | 0% | -19% | 5%
Rango release inh | 17% | -20% | 2% | 19% | 41% | -13% | 2% | 2%
GLA inh pH 4.5 | . | 5 | . | . | 4 | 5 | 0 | 1

[33] CCn1cc(C(=O)NCc2ccccc2)c(=O)c2cc(F)c(N3CCN(C(=O)c4ccco4)CC3)cc21
[34] Cc1nc(C(=O)NNC(=O)c2cccc(Cl)c2)c(C(F)(F)F)o1
[35] Cc1ccc(OCc2cc(C(=O)NCC(C)c3ccccc3)no2)cc1C (configuration not stated)
[36] Cc1cccc(N(C(=O)CCC(=O)Nc2cc(C)on2)C(C(=O)NC2CCCC2)c2ccc(C)o2)c1 (configuration not stated)
[37] COc1ccc(-c2cn(-c3ccc(Br)cc3)c3[n+]2CCS3)cc1
[38] Clc1ccc(-c2nnc(SCc3nc(-c4ccccc4)no3)o2)cc1
[39] COCCNC(=O)c1ccccc1NS(=O)(=O)c1ccc(C)c([N+](=O)[O-])c1
[40] CC12CCC(C(N)C1=O)C2(C)C (configuration not stated)
entry no. | 33 | 34 | 35 | 36 | 37 | 38 | 39 | 40
Rango complex inh | -0.6% | 2.7% | -3.5% | 0.3% | -1.7% | 1.8% | -0.7% | ?
miR-21 reporter | -1% | 14% | 6% | -23% | 28% | -3% | -4% | .
Rango release inh | -2% | 5% | 2% | 25% | 1% | -25% | 5% | 22%
GLA inh pH 4.5 | 6 | -3 | . | 1 | 5 | -1 | 4 | .

[41] CCCC(CCC)C(=O)Nc1cccc(-c2cn3c(n2)SCC3)c1
[42] COC(=O)c1ccc(C(=O)Nc2nnc(-c3cccnc3)o2)cc1
[43] CC(C)N1CC(COc2ccc(Cl)cc2Cl)OC1=O (configuration not stated)
[44] COc1ccc(N2CCN(C(=O)c3cc4c(s3)CCCCC4)CC2)cc1
[45] Cc1ccc2nc(NC(=O)CN3CCN(c4ccccn4)CC3)sc2c1
[46] Cc1ccc(-c2nn(-c3ccccc3)cc2C2SCC(=O)N2Cc2ccccc2)o1 (configuration not stated)
[47] CCOCCCNC(=O)C(c1ccc(C)cc1)N(Cc1cccs1)C(=O)c1ccccc1O (configuration not stated)
[48] O=C(O)c1ccccc1-c1ccccc1C(=O)NCc1ccccc1Cl
entry no. | 41 | 42 | 43 | 44 | 45 | 46 | 47 | 48
Rango complex inh | 1.6% | . | -1.7% | 0.6% | -0.1% | 1.9% | -2.1% | -0.2%
miR-21 reporter | -5% | -1% | -16% | . | -2% | 0% | 12% | -2%
Rango release inh | 1% | . | 14% | -13% | 9% | 0% | -7% | 16%
GLA inh pH 4.5 | . | 3 | . | . | . | -2 | 0 | .

[49] Cc1ccn2cc(-c3cccc(NC(=O)C(C)C)c3)nc2c1
[50] COc1ccc(S(=O)(=O)N2CCN(Cc3ccc4c(c3)OCO4)CC2)cc1F
[51] NC(=O)c1cnn(Cc2ccc(Cl)cc2)c1N
[52] COc1ccccc1OCc1nc2ccccc2s1
[53] CC1CCN(C(=O)CCc2ccc(Oc3cc([N+](=O)[O-])cc([N+](=O)[O-])c3)cc2)CC1
[54] O=C(NC1CCCCC1)C(c1cccs1)N(C(=O)c1ccccn1)c1ccccc1 (configuration not stated)
[55] COc1cc2c(cc1OC)C(C)N(C(=O)C1=NN(c3cccc(C)c3)C(=O)CC1)CC2 (configuration not stated)
[56] Cc1cnc(NC(=O)CSc2nnc(-c3ccc(Cl)cc3Cl)n2N)s1
entry no. | 49 | 50 | 51 | 52 | 53 | 54 | 55 | 56
Rango complex inh | 1.2% | -0.7% | 3.4% | 5.6% | -6.9% | 1.9% | -3.1% | -1.4%
miR-21 reporter | -47% | -10% | -1% | -18% | -4% | -5% | -9% | -16%
Rango release inh | -5% | 16% | -2% | -7% | 44% | 0% | -1% | 2%
GLA inh pH 4.5 | 4 | . | 10 | -5 | -5 | -10 | . | 3

[57] NC(=O)C1CC=CCC1C(=O)OCC(Cl)=C(Cl)Cl (configuration not stated)
[58] CC(=O)NCCSCCNC(C)=O
[59] CN(C)CCCNC(=S)N1CCC(c2nc3ccccc3[nH]2)CC1
[60] Cc1ccc(NC(=O)c2cc(S(=O)(=O)N(C)C)ccc2N2CCCC2)cc1F
[61] CN(C)c1ccc(C(=O)Nc2ccc(S(=O)(=O)NC3=NCCCCC3)cc2)cc1
[62] Cc1ccc(C)c(OCCC(=O)OCC(=O)NCCNC(=O)COC(=O)CCOc2cc(C)ccc2C)c1
[63] NS(=O)(=O)c1cccc(NC(=O)COC(=O)c2cc(Cl)ccc2[N+](=O)[O-])c1
[64] Cc1c(C(=O)O)sc2nc(SCC(=O)Nc3ccc(S(=O)(=O)NCCCC(=O)O)cc3)[nH]c(=O)c12
entry no. | 57 | 58 | 59 | 60 | 61 | 62 | 63 | 64
Rango complex inh | -2.4% | -0.4% | 0.9% | -0.1% | -3.9% | 3.5% | 3.3% | ?
miR-21 reporter | 0% | 0% | 0% | 15% | -12% | . | 0% | -2%
Rango release inh | -4% | 1% | -1% | 14% | 2% | -7% | -1% | -19%
GLA inh pH 4.5 | 4 | 4 | . | . | 3 | . | -1 | -5

[65] O=C(Cc1ccc([N+](=O)[O-])cc1)NNC(=O)c1ccc2c(c1)OCO2
[66] O=C(COc1ccccc1)Nc1ccncc1
[67] C=CCN1C(=O)C(O)(CC(=O)c2ccccn2)c2ccccc21 (configuration not stated)
[68] CC(C)OCCOc1ccc2oc(-c3ccco3)cc(=O)c2c1
[69] Clc1ccccc1CSC1=NCCN1
entry no. | 65 | 66 | 67 | 68 | 69
Rango complex inh | 3.1% | -1.6% | -2.4% | 1.4% | -0.5%
miR-21 reporter | -6% | -6% | 3% | -36% | 0%
Rango release inh | -14% | 0% | 5% | -1% | 3%
GLA inh pH 4.5 | . | 0 | 1 | . | -21

Gathered by group, those above containing fluorine (9)
[2] COc1ccc(C(=O)CCN2CCN(c3ccccc3F)CC2)cc1
[16] O=c1[nH][nH]c(-c2ccccc2)c1C=Nc1ccc(C(F)(F)F)cc1
[19] O=C(CNC(=O)c1ccc2c(c1)S(=O)(=O)N=C1CCCCCN12)Nc1ccc(F)c(F)c1
[26] CC1(C)CC(=O)C2=C(C1)N(c1ccc(F)cc1)C(N)=C(C#N)C2c1cccs1 (configuration not stated)
[28] Nc1nonc1-n1nnc(C(=O)N/N=C/c2ccc(OCc3ccccc3F)cc2)c1CNc1ccccc1
[33] CCn1cc(C(=O)NCc2ccccc2)c(=O)c2cc(F)c(N3CCN(C(=O)c4ccco4)CC3)cc21
[34] Cc1nc(C(=O)NNC(=O)c2cccc(Cl)c2)c(C(F)(F)F)o1
[50] COc1ccc(S(=O)(=O)N2CCN(Cc3ccc4c(c3)OCO4)CC2)cc1F
[60] Cc1ccc(NC(=O)c2cc(S(=O)(=O)N(C)C)ccc2N2CCCC2)cc1F
entry no. | 2 | 16 | 19 | 26 | 28 | 33 | 34 | 50 | 60
Rango complex inh | -1.8% | -2.7% | -3.4% | ? | ? | -0.6% | 2.7% | -0.7% | -0.1%
miR-21 reporter | 2% | 3% | . | -6% | -17% | -1% | 14% | -10% | 15%
Rango release inh | 4% | 5% | 6% | -20% | 19% | -2% | 5% | 16% | 14%
GLA inh pH 4.5 | -5 | 5 | . | 5 | . | 6 | -3 | . | .
